EPAC1 agonist = human EPAC1 agonism, validation; O95398; EPAC1 Rap1b BODIPY-GDP exchange, fluorescence; Potency, µM, inactives show max response, positive = active, hits mostly activators; actives 1% (n = 16,000); AID 1645883; active means well fitted activation curve with a large enough effect; inconclusive means small, poorly fitted or top-dose-only effect; inactive means no such curve, though single readings can be large or run the other way;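 further: nearly all actives have a fitted effect of over 70% in size; series mostly up to about 76 or 150 µM; scaled to a cAMP control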
Target sequence (O95398 whole entry, looked up): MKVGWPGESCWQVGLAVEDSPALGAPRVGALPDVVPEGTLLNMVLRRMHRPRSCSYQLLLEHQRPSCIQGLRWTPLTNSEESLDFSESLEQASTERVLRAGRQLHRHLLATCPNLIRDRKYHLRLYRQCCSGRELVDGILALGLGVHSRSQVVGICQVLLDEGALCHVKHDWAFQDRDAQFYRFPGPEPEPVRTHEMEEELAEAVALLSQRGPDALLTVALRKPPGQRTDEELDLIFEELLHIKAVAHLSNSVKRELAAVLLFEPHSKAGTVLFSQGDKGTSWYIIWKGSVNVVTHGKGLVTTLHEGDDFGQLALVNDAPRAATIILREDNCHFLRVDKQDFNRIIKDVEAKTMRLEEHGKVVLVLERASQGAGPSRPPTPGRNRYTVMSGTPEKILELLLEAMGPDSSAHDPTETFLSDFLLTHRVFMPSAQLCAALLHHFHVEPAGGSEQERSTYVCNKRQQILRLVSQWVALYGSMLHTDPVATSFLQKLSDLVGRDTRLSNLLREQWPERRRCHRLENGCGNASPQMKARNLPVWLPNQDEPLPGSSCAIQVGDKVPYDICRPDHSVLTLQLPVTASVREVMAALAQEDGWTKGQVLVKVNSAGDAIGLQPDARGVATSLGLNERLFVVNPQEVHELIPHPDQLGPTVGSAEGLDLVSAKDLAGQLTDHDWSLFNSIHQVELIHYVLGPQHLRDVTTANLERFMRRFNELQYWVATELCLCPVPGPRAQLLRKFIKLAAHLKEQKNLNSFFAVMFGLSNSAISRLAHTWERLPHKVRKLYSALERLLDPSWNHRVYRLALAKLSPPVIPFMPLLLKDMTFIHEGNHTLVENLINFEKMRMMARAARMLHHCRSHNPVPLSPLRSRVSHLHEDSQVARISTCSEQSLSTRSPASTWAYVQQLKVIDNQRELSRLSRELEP
Numbers without * were called inactive; ? = inconclusive; & = joins results of further samples; ! = a repeat was not active; [ ] = remark or other dose. On the % scale 0 is the no-effect control and ±100 the full control effect; potency means the concentration at half of the fitted maximal effect. The list is partial (hit frequency here may not be typical).

EPAC1 agonist,Structure
6.3%,CCNc1ncc2nc(-c3cc(F)cc(F)c3)c(=O)n(CCc3ccccc3)c2n1
-61.8%[inhibitor],Cc1noc(C)c1C(=O)N1CCC2(CC1)CCN(c1cccc(-c3ccccc3)c1)CC2
?,Cc1cccc(CNc2nc(-c3ccc(C(=O)N(C)C)cc3)nc3ccccc23)c1
-20.7%,CO/N=C1\CN(c2nc3c(cc2F)c(=O)c(C(=O)O)cn3C2CC2)CC1CN (configuration not stated)
-13.2%,Fc1cccc(/C=N/N=C/c2cccc(F)c2)c1
-39.6%,CCCN(CCC)C(=O)C(CCC(=O)OCCCN1CCN(CCOC(=O)Cc2c(C)n(C(=O)c3ccc(Cl)cc3)c3ccc(OC)cc23)CC1)NC(=O)c1ccccc1 (configuration not stated)
1.3%,CS(=O)(=O)c1ccc(-c2cccc3c2OC(CNC(=O)c2cc(C4CC4)[nH]n2)C3)cc1 (configuration not stated)
-42.7%[inhibitor],Cc1ccc(SC[C@H](C)CN2CC[C@H](C)CCC2=O)cc1
19.5%,COc1ccc(CN2Cc3cccc4c3[C@@H](CC2=O)[C@H](O)[C@H](O)C4)cc1
-1.2%,C=C1CC[C@@H]2O[C@@]2(C)CC[C@H]2[C@H]1CC2(C)C
-10.1%,CC(C)CN(C[C@@H](O)[C@H](Cc1ccccc1)NC(=O)O[C@H]1CO[C@H]2OCC[C@H]21)S(=O)(=O)c1ccc(N)cc1
-17.9%,Cn1c(=O)c(-c2cc(F)cc(F)c2)nc2cnc(N3CCOCC3)nc21
-4.7%,CCCCN1CCC(n2c(=O)[nH]c3ccccc32)CC1
9.9%,CN1CC[C@@]2(CCCN(C(=O)c3cc(C(F)(F)F)cc(C(F)(F)F)c3)C2)C1
?,O=C1[C@H](Cc2ccccc2)NCCCC[C@H](c2ccc(Cl)cc2)N1Cc1ccc(Cl)cc1
-19.8%,CN(C)CC/C=C1/c2ccccc2CSc2ccccc21
2.0%,Cc1ncc2c(c1CNC(=O)c1cncs1)CCN(C(=O)c1cc(F)c(F)cc1F)C2
0.2%,COCC(=O)Nc1cc(C(=O)N2CCN(c3ccc(Cl)cn3)CC2)c2c(c1)nc(C1CCC1)n2C
11.8%,CN(C)Cc1ccccc1-c1nc(NCc2ccccc2)c2ccccc2n1
-9.8%,O=C(c1ccc(N2CCC(NCCCn3ncc4ccccc43)CC2)cc1)N1CCOCC1
-14.4%,CO[C@H]1[C@H](NC(=O)c2ccco2)c2ccccc2C12CCN(Cc1ccc3cccc(F)c3n1)CC2
?,Cn1cccc1C(=O)N1CCC2(CC1)CCN(C(c1ccccc1)c1ccccc1)CC2
0.5%&-12.8%,C[N+]1(C)CCc2cc3c(cc2[C@@H]1[C@@H]1C(=O)Oc2c1ccc1c2OCO1)OCO3
6.4%,COC(=O)[C@@H]1CCCN1Cc1ccc2c(c1)CN(Cc1cccc(Cl)c1)CCO2
-21.0%,CC(C)C[C@@H](COc1ccccc1)N1CCN(Cc2ccccc2)CCC1=O
?,c1ccc(C(c2ccccc2)N2CCC3(CCNCC3)CC2)cc1
12.9%,O=C(CCCN1CCC(n2c(=S)[nH]c3ccccc32)CC1)c1ccc(F)cc1
-5.5%&-6.2%&-17.6%,COc1ccccc1N1CCN(CCn2c(=O)[nH]c3c([nH]c4ccccc43)c2=O)CC1
-7.2%,COc1ncc2nc(-c3cc(F)cc(F)c3)c(=O)n(C)c2n1
-13.2%,Cc1cccc(CNc2cc(-c3cccc(NS(C)(=O)=O)c3)ncn2)c1
-2.1%&18.1%,CCN(CC)C(=O)N1CCN(C)CC1
-17.8%,Cc1ccc2nc(SCC(=O)N3CCOc4ccc(CN5C[C@@H](C)O[C@@H](C)C5)cc4C3)[nH]c2c1
-17.1%,Cc1cc(C)cc(CN2CCc3nnc(C(NS(C)(=O)=O)C(C)C)n3CC2)c1 (configuration not stated)
14.7%,COc1cccc(-c2cncnc2NCc2ccccc2OC)c1
8.2%,O=C(Nc1cccc(F)c1)N1CC2(CCN(C(=O)c3ccco3)CC2)C1
-58.4%[inhibitor],CCCCCCCC/C=C\CCCCCCCC(=O)N[C@@H](CO)Cc1ccc(O)cc1
-54.4%[inhibitor],COc1ccc(C2CC(=O)c3c(O)cc(O)cc3O2)cc1O (configuration not stated)
-9.6%,O=C1CCC(=O)N1CO
-1.7%,FC(F)(F)C(F)(F)C(F)(F)C(F)(F)C(F)(F)F
-5.0%,O=C(c1cnn(-c2nccc(-c3ccco3)n2)c1C1CC1)N1CCCCC1c1cccnc1 (configuration not stated)
-12.7%,NC(=O)c1ccc2[nH]ccc2c1
22.7%,NC(N)=[N+]1CCc2ccccc2C1
-20.0%&-10.9%,O=C(OCc1ccccc1)c1ccccc1
-47.6%[inhibitor],N#Cc1ccc(CN2CCC3(CC2)CCN(C(=O)c2ccncc2)CC3)cc1
-4.8%,O=C(c1cnn(-c2nccc(-c3ccccc3F)n2)c1C1CC1)N1CCCCC1c1cccnc1 (configuration not stated)
8.8%,NCCNCCNCCNCCN
-13.2%,CCCCC[C@H](O)/C=C/C=C\C=C\C=C\[C@@H](O)[C@@H](O)CCCC(=O)O
2.5%,CC(C)c1nc(C(=O)N2CCOc3ccc(CN4CCN(c5ccccn5)CC4)cc3C2)cs1
9.3%,COc1ccccc1-c1cncnc1N(C)Cc1ccco1
18.2%,Cn1cccc1C(=O)N1CCC2(CCCN(c3ccccn3)C2)CC1
-4.2%&-5.1%,C[N+]1(C)C2CC(OC(=O)[C@H](CO)c3ccccc3)CC1C1OC12 (some centres not stated)
?,COc1ccc2[nH]cc(CCNc3nc(-c4c(C)noc4C)nc4ccccc34)c2c1
-2.8%,COc1ccc2[nH]cc(CCNc3ncncc3-c3ccoc3)c2c1
7.9%&-20.5%&-6.2%&21.6%,CCCCNc1cc(C(=O)O)cc(S(N)(=O)=O)c1Oc1ccccc1
-9.3%,O=C(O)CSCC(=O)NC1CCSC1=O (configuration not stated)
7.0%,COc1cc(=O)n2c(c1C(=O)NCc1ccco1)CCN(Cc1cccc(C(F)(F)F)c1)CC2
-14.7%,COc1ccccc1CNc1cc(-c2ccoc2)ncn1
-12.5%,CC(=O)NCCNc1nc(-c2cccc(NS(C)(=O)=O)c2)nc2ccccc12
24.3%,COC(=O)c1c(C)cc(O)cc1O
-2.6%,CC(O)C(O)[C@H]1CNc2nc(N)[nH]c(=O)c2N1 (some centres not stated)

Later entries
EPAC1 agonist,Structure
-6.9%,COc1ccc(C(=O)NCC2Cc3cccc(-c4cncnc4)c3O2)c(OC)c1OC (configuration not stated)
4.0%&-31.8%,CC1(C)CCC(NC(=O)[C@@H](N)CCC(=O)O)CC1
-1.9%,Cn1cc(CNC2CCN(c3cccc(NC(=O)c4cccnc4)c3)CC2)cn1
-19.0%,CCOC(=O)[C@H](N)/C=C(\C)CP(=O)(O)O
-21.0%,C[C@H](CSC(=O)c1ccccc1)C(=O)N1C[C@@H](Sc2ccccc2)C[C@H]1C(=O)O
-0.9%,CC1(C)C(=O)N(CCN2CCC(C(=O)c3ccc(F)cc3)CC2)c2ccccc21
-49.2%[inhibitor],C[C@@]12CC[C@@H]3c4ccc(O)cc4C[C@H](CCCCCCCCCS(=O)CCCC(F)(F)C(F)(F)F)[C@H]3[C@@H]1CC[C@@H]2O (some centres not stated)
24.7%,Cn1cccc1C(=O)N1CCC2(CC1)CN(C(=O)Nc1cccc(F)c1)C2
?,CCNc1ncc2nc(-c3cccc(C#N)c3)c(=O)n(Cc3cccc(OC)c3)c2n1
14.9%,CN(CC1COCCO1)C(=O)c1cnn(-c2ncc3c(n2)-c2ccccc2CC3)c1C1CC1 (configuration not stated)
4.8%&-0.8%,CC(C)(C=O)Cc1cc(C(C)(C)C)c(O)c(C(C)(C)C)c1
12.5%,O=C(O)CCCCCCCCc1cn(CN2C(=O)c3ccccc3C2=O)nn1

Reprinted from the entries so far for reference:
EPAC1 agonist,Structure
-6.9%,COc1ccc(C(=O)NCC2Cc3cccc(-c4cncnc4)c3O2)c(OC)c1OC (configuration not stated)
4.0%&-31.8%,CC1(C)CCC(NC(=O)[C@@H](N)CCC(=O)O)CC1
-1.9%,Cn1cc(CNC2CCN(c3cccc(NC(=O)c4cccnc4)c3)CC2)cn1
-19.0%,CCOC(=O)[C@H](N)/C=C(\C)CP(=O)(O)O

Next part.
EPAC1 agonist,Structure
-0.3%,CC(C)Cc1nc2cc(NS(=O)(=O)N(C)C)cc(C(=O)N3CCOc4ccccc4C3)c2n1C
6.7%,COc1ccc2[nH]cc(CCNc3ncncc3-c3ccccc3C)c2c1
-43.8%[inhibitor],O=C(c1cnccn1)N1CCC[C@@]2(CCN(c3ccccc3)C2)C1
-1.6%,COc1cccc(-c2ccnc(-n3ncc(C(=O)N(C)CCc4ccccn4)c3C)n2)c1
9.4%,COc1ccc(-c2nc3cnc(N4CCOCC4)nc3n(C3CC3)c2=O)cc1
5.2%,COc1ccccc1-c1cncnc1NCc1cnc(C)cn1
-23.0%,COc1cccc(CN2C(=O)NC(C)(C3CCN(Cc4cccc(O)c4)CC3)C2=O)c1OC (configuration not stated)
?,COc1ccc(C2CC(=O)c3c(O)cc(O[C@H]4OC(COC5OC(C)C(O)C(O)[C@@H]5O)C(O)C(O)C4O)cc3O2)cc1O (some centres not stated)
4.4%,CC(N)(Cc1ccc(O)cc1)C(=O)O (configuration not stated)
89.1µM*,COc1ccccc1CNc1nc(-c2cccnc2)nc2ccccc12
5.1%,C[C@H](CCC(=O)O)[C@H]1CC[C@H]2[C@@H]3CC[C@@H]4C[C@H](O)CC[C@]4(C)[C@H]3C[C@H](O)[C@]12C
-29.0%,c1cc2c3c(c1)CCCN3CCC2

Part of the list above in order of length of the SMILES, smallest number first:
EPAC1 agonist,Structure
-29.0%,c1cc2c3c(c1)CCCN3CCC2
9.4%,COc1ccc(-c2nc3cnc(N4CCOCC4)nc3n(C3CC3)c2=O)cc1
-58.4%[inhibitor],CCCCCCCC/C=C\CCCCCCCC(=O)N[C@@H](CO)Cc1ccc(O)cc1

Additional records follow:
EPAC1 agonist,Structure
-41.3%[inhibitor],COc1ncc2nc(-c3ccccc3)c(=O)n(C)c2n1
-4.2%,C[N@+]12CCCC[C@@H]1CCC(=C(c1cccs1)c1cccs1)C2
19.2%,COC(=O)[C@H](Cc1ccccc1)N(Cc1ccc(C)cc1)S(C)(=O)=O
10.5%,CCN(CC)Cc1ccc(Nc2ccnc3cc(Cl)ccc23)cc1O
-9.4%,Cc1ccc(-c2ccnc(-n3ncc(C(=O)N(C)CC4CCCN(C)C4)c3C)n2)o1 (configuration not stated)
-2.8%,CCC1CN(CC(=O)NC(C)c2c(C)nn(C)c2C)Cc2cc(OC)ccc2O1 (configuration not stated)
-55.7%[inhibitor],CS(=O)(=O)N1CCC2(CCN(C(=O)Nc3cccc(C#N)c3)CC2)CC1
-18.3%,CN(C)c1nc2cc(Cl)ccc2cc1CN(Cc1ccc2c(c1)OCO2)C(=O)c1ccoc1
6.7%,OCc1ccccc1O[C@@H]1O[C@H](CO)[C@@H](O)[C@H](O)[C@H]1O
6.8%,COC(=O)Oc1ccccc1C(=O)O
27.6%,O=C(O)c1cc(-c2ccc(-c3c(-c4ccc5c(c4)OCO5)noc3-c3ccsc3)cc2)nc2ccccc12
?,CN(C)c1ccc(/C=C/c2ccc3cc(N(C)C)ccc3n2)cc1
-18.6%,CC[C@H](C)N(C)C(=O)c1cc2ccccc2c(-c2ccccc2Cl)n1
-10.3%,CC12CCC(C[N+](C)(CCC[N+](C)(C)C)C1)C2(C)C (configuration not stated)
1.1%,COc1ccc(O)c(C(=O)N2CCC3(CC2)c2ccccc2[C@@H](NC(=O)c2ccccn2)[C@@H]3OC)c1
6.2%,OC[C@H]1OC([S-])[C@H](O)[C@@H](O)[C@@H]1O.[Au+] (some centres not stated)
-4.8%,CN(Cc1ccco1)c1ncncc1-c1ccc2c(c1)OCO2
-15.0%,COC(=O)N1CCC2(CC1)CCN(c1ccncc1)CC2
-26.9%,COC(=O)N1CCC[C@@]2(CCN(Cc3nccs3)C2)C1
100µM*!,Cc1cc2nc3c(=O)[nH]c(=O)nc-3n(C[C@H](O)[C@H](O)[C@H](O)CO)c2cc1C
-81.4%[inhibitor],COc1ccc(NC(=O)[C@@H]2CC=C[C@@H]3CCN(C4CCCCC4)C(=O)[C@@H]32)cc1
-48.8%[inhibitor],CN1CCN(c2ncc3nc(-c4cccc(C#N)c4)c(=O)n(C)c3n2)CC1
-23.8%,O=C(Nc1ccccc1)N1CCC2(CCNCC2)CC1
-8.7%,CC(NCCc1ccc(O)cc1)C(O)c1ccc(O)cc1 (configuration not stated)
29.4%,COc1ccc2[nH]cc(CCNc3nc(-c4ccoc4)nc4ccccc34)c2c1
-15.0%,CCCCC(F)(F)[C@@]1(O)CC[C@H]2[C@H](CC(=O)[C@@H]2CCCCCCC(=O)O)O1
-4.4%,COc1cc(-c2ccc(Cl)cn2)cc2c1OCCN(C(=O)c1ccccc1-n1cccn1)C2
-31.6%[inhibitor],CN(C)C(=O)c1ccc(-c2ccc3ncnc(NCc4cccs4)c3c2)cc1
28.7%,CC1CCC2=C1C[C@H](C(C)(C)O)CC[C@@H]2C (some centres not stated)
17.1%,O=C(NCCc1nnc2n1CCN(Cc1c(F)cccc1F)CC2)c1ccc(F)cc1
3.6%&-24.2%&-4.9%,CCOC(=O)c1ncn2c1CN(C)C(=O)c1cc(F)ccc1-2
-27.7%,CNS(=O)(=O)Cc1ccc2[nH]cc(CCN(C)C)c2c1
-44.6%[inhibitor],CCCCCCCCCCCCCCCC[n+]1ccc(/C=C/c2c(C)[nH]c3ccccc23)cc1
3.2%&29.8%,Clc1cccc(Nc2nnc(-c3ccccc3)c3ccccc23)c1
-49.2%[inhibitor],COc1ccc(-c2nc3cnc(N4CCNCC4)nc3n(-c3ccccc3)c2=O)cc1
-27.0%,Cc1nc2cnc(Oc3cccc(Cl)c3)nc2n(CCc2ccccc2)c1=O

Screens (PubChem)
